E coli growth: blocks Escherichia coli growth; OD600, 23 h; stronger effect = lower value; OD600 absorbance (concentration not given with the values); 0.21% of 330,000 active; AID 1053175;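 active means OD600 absorbance below the run mean of sample wells minus 3.6 SD, in any replicate, cut at about 0.56 in these data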;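 further: stock transfer was 300 nL into about 60 µL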
HNF4A DNA FP: change in binding of human HNF4 alpha to DNA; P41235; activity change, % at 10 µM; HNF4a-FITC DNA binding, fluorescence polarization, 1 h; 0.3% of 360,000 active; in the data active means activity change above about 30%, passing the limit was not always enough;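 further: controls were the assay level and a saturating level of protein; the project sought stronger binding though the title names inhibitors; some compounds called inactive have numbers as strong as hits; positive values seem to mean higher polarization but the record does not say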
Target sequence (P41235 whole entry, looked up): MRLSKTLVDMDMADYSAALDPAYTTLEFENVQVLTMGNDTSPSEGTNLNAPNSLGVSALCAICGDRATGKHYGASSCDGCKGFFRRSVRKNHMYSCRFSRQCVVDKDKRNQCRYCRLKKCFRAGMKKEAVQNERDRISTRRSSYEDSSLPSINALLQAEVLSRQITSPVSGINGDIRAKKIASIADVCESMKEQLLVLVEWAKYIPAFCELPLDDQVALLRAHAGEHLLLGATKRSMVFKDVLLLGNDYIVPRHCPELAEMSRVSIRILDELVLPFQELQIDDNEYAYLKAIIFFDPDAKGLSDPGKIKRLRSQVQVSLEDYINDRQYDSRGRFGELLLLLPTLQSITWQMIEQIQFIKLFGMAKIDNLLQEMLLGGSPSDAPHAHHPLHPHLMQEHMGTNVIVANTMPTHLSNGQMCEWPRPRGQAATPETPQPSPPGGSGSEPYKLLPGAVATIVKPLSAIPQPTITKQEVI
ALR inh: blocks human ALR sulfhydryl oxidase activity; inhibition, % (test concentration not listed); 3.8% of 290,000 active; AID 485317; purified ALR, DTT oxidation, H2O2 HRP-luminol luminescence;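 active means mean and each replicate at 75% or more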;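 further: stock transfer was 7.5 nL into about 7.5 µL; 0% = neutral wells and 100% = wells with inactivated enzyme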
Target sequence (P55789 whole entry, looked up): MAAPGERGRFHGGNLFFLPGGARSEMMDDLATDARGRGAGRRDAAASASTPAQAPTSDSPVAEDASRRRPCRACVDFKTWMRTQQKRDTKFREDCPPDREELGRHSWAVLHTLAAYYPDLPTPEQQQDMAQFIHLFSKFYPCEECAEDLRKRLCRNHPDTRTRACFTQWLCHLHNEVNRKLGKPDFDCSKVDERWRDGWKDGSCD
Vif TR-FRET: inhibitors of Vif binding to APOBEC3G peptide, primary screen, biochemical, TR-FRET, GST-Vif 1-94, biotin-A3G peptide, dose response retest (AID 1117319). inhibition, %, or IC50 in µM where a hit was titrated. TR-FRET GST-Vif / biotin-A3G peptide binding; higher % means a stronger effect; test concentration not given here; strong numbers were not always called active. 0.57% of 260,000 active;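 active means above the screen mean plus three standard deviations and confirmed in dose response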;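 further: Vif residues 1-94 fused to GST binding biotinylated APOBEC3G peptide 110-148; 0% = full assay without inhibitor and 100% = GST in place of GST-Vif; retest series ran down from 100 µM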
rRNA inh HTS: inhibitors of bacterial rRNA selective over humanized ribosomes. GFP signal change (wild-type ribosome), % (no concentration beside the values). 1.6% of 350,000 active. E. coli WT GFP vs humanized-ribosome RFP mutants, fluorescence, 24 h; stronger effect = lower value; DMSO median 0, no signal -100;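 active means significant combined selectivity score with lowered wild-type GFP, culture density cut under 30%, mutant RFP and density less affected; inactive means any of these conditions unmet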; further: one replicate is shown; some compounds called inactive have numbers as strong as hits
MLL AF4-AF9 inh: inhibitors of human MLL-AF4/AF9 interaction; AID 651704; inhibition, % at 10 µM; P42568; 0.47% of 350,000 active; AlphaScreen, biotin-AF4 peptide binding to FLAG-AF9;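 active means every replicate reaching a set inhibition limit, whatever the replicate mean, cut at about 25% in these data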;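 further: 0% = plate neutral control median and 100% = total signal loss; the record names both 10 and 1 µM as test concentration; the first replicate is given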
FGF22 binding: shifts melting point of recombinant human FGF22. Q9HCT0. 1.5% of 340,000 active. calls only at 9.99 µM. recombinant FGF22 thermal shift, SYPRO orange fluorescence; percent of sucrose octasulfate shift, DMSO zero;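 active means melting point raised past a set limit in the mean and every replicate; three in four hits are not shown here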
Target sequence (Q9HCT0 whole entry, looked up): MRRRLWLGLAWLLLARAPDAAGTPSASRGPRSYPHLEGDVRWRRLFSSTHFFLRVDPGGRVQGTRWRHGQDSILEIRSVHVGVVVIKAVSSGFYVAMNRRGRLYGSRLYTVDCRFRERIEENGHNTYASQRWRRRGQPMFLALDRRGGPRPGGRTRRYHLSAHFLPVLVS
rRNA inh HTS OD600: also measured in rRNA inh HTS; calls as there; OD600 change, %; measured here: OD600 growth;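 optical density of the mix in the first replicate; 0 = DMSO median and -100 = no signal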
rRNA inh HTS RFP: recorded beside rRNA inh HTS, whose call it bears; RFP signal change, %; measured here: RFP humanized mutant strains;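 first replicate; 0 = DMSO median and -100 = no signal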
The depositor's hits bear a star; i = inactive; . = no result given; & = joins results of further samples. These rows are one share of the data (hit frequency here may not be typical).

smiles	E coli growth	HNF4A DNA FP	ALR inh	Vif TR-FRET	rRNA inh HTS	rRNA inh HTS OD600	rRNA inh HTS RFP	MLL AF4-AF9 inh	FGF22 binding
Cc1ccc(OCC(=O)N(Cc2cccc(F)c2)C2CCS(=O)(=O)C2)cc1 (centres undefined)	0.66	-4.1	0	-8%	4	-1	-2.6	-4.9	i
CC1=Nc2ccccc2N=C(NC(=O)c2ccccc2)C1c1ccccc1 (centres undefined)	.	0.6	-2	0%	8	-1	-3.4	5.8	i
COc1ccccc1-c1cn(CC[C@H]2CC[C@@H](NC(=O)c3cnccn3)[C@H](CO)O2)nn1	.	.	.	.	-1	-1	-2.6	0.4	i
O=C(O)/C=C/c1cn(Cc2ccccc2)nc1-c1cccs1	0.72	0.9	.	-6%	-7	13	6.8	-2.1	i
CCn1ncc(Br)c1C(=O)Nc1ccccc1C(F)(F)F	0.67	1.0	-10	4%	-3	-5	1.5	-0.8	i
C[C@H]1CN([C@@H](C)CO)C(=O)c2cc(/C=C/c3ccccc3)cnc2O[C@@H]1CN(C)S(=O)(=O)c1ccc(F)cc1	.	.	.	.	-4	3	5.0	6.5	i
CNS(=O)(=O)c1cccc(C(=O)NCC2CCCCC2)c1	0.67	2.5	-1	3%	1	3	2.6	0.5	i
COc1ccc(/C=N/NC2=NCCCCC2)c(OC)c1	.	-1.7	1	.	0	-5	-2.7	1.7	i
COc1cccc(S(=O)(=O)N2CCCCN3[C@@H](CO)[C@H](c4ccc(C#CCC(C)C)cc4)[C@@H]3C2)c1	.	.	.	.	-18	-26	13	4.0	i
CN1CCN(c2ccc(-c3ccc4ccccc4n3)cc2)CC1	0.68	-3.1	.	.	9	4	-5.1	-11	i
CC(C)N1CCN(S(=O)(=O)c2ccccc2)c2ccccc21	0.69	-1.7	.	-7%	-19	-48	11	1.6	i
CCCc1cc(=O)oc2cc(C)cc(OCC(=O)NCc3cccnc3)c12	0.71	5.0	1	.	-6	-9	-1.5	-1.5	i
CCOC(=O)Cn1c2ccc(C)cc2c2nc(C)sc21	0.72	7.4	.	1%	-19	17	2.8	1.0	i
COc1cc(OC)c2c(-c3cccc(-c4cccc(N)c4)c3)cc(=O)oc2c1	0.68	8.2	.	-8%	-15	0	4.3	-1.2	i
CCOC(=O)N1CCN(C(=O)Cn2nc(C)n3nc(-c4ccc(OC)cc4)cc3c2=O)CC1	0.74	-0.1	-3	.	13	12	-0.2	-3.0	i
CC1(C)c2ccccc2N2CC(=O)N(CC(N)=O)C21C (centres undefined)	0.65	91	-9	15%	.	.	.	-0.2	.
CCOC(=O)C1=NN(c2ccc([N+](=O)[O-])cc2)CC1C(=O)OC (centres undefined)	0.67	3.0	39	.	.	.	.	.	.
COc1cccc(-c2ccc3c(c2)O[C@H](CN(C)Cc2cncnc2)[C@@H](C)CN([C@@H](C)CO)S3(=O)=O)c1	.	.	.	.	-14	-19	2.0	2.8	i
COc1ccc(C(=O)Nc2ccnn2C2CCN(Cc3ccc4nonc4c3)CC2)cc1	0.71	1.9	-2	.	.	.	.	4.2	i
C=CCn1c(CNC(=O)c2cccs2)n[nH]c1=S	0.67	-1.6	-4	-2%	.	.	.	.	.
CC(=O)c1cccc(OCC(=O)N2CCCc3ccccc32)c1	0.65	3.1	-1	.	-2	-3	2.4	2.1	i
CCn1ccc(C(=O)NC2=NCCS2)n1	0.68	-1.9	.	-2%	8	-8	-1.6	-71	i
COc1ccc(NC(=O)N(C)C[C@H]2Oc3ccc(NC(=O)Nc4ccc5c(c4)OCO5)cc3C(=O)N([C@@H](C)CO)C[C@H]2C)cc1	.	.	.	.	1	6	-1.2	3.8	i
O[C@@H]1COC(Nc2ccc(N=Nc3ccccc3)cc2)C[C@@H]1O (some centres undefined)	0.64	.	-1	-9%	-1	-10	-0.2	0.4	i
Brc1[nH]nc2ccccc12	0.65	2.3	-11	-1%	0	2	-6.6	4.9	i
Cc1cc(C)c2nc(Nc3nc(CSc4nc5ccccc5[nH]4)cc(=O)[nH]3)nc(C)c2c1	.	-4.0	.	.	5	-3	-4.1	.	i
CN(C)c1ccc(/C=N/N2C(=S)SC(C)(C)C2N(O)C(=O)Nc2ccc([N+](=O)[O-])cc2)cc1 (centres undefined)	.	-2.2	-8	0%	.	.	.	.	.
CN(C(=O)CSc1nnc(Nc2ccccc2F)s1)C1CCS(=O)(=O)C1 (centres undefined)	0.69	-0.7	-3	.	2	5	-1.7	-0.4	i
COc1ccc(S(=O)(=O)Nc2ccc3c(c2)C(=O)N([C@H](C)CO)C[C@H](C)[C@H](CN(C)C(=O)CCCN(C)C)OCCCC[C@H](C)O3)cc1	.	.	.	.	1	8	-2.3	3.1	i
COc1cc2c(cc1NC(=O)c1ccncc1)oc1ccccc12	0.69	-3.0	-6	-7%	.	.	.	.	.
Cc1ccc(CNC(=O)COc2ccc(S(=O)(=O)N3CCCC3)cc2)cc1	0.71	12	.	.	4	9	-1.5	0.5	i
CC(NC(=O)Cc1cccc(C(F)(F)F)c1)c1ccc(F)cc1 (centres undefined)	0.71	-1.2	1	.	-13	-14	-1.1	-2.5	.
COc1ccc(NS(=O)(=O)c2ccc(NC(=O)c3ccccn3)cc2)cc1	0.65	1.3	.	7%	.	.	.	-0.6	i
COc1ccc(OCCOC(=O)c2ccc(F)c(S(=O)(=O)N3CCOCC3)c2)cc1	0.63	-1.2	1	-1%	6	4	1.9	-2.5	i
CCOP(=O)(OCC)c1nc(-c2cccc([N+](=O)[O-])c2)oc1N1CCCCC1	0.69	6.4	-5	6%	-14	-10	-1.1	7.1	i
c1coc(-c2nc3c4c5c(sc4ncn3n2)CCCC5)c1	0.71	-0.1	8	8%	.	.	.	.	.
O=C(Oc1ccc2c(c1)OCC2=O)c1ccc(Cl)cc1	0.7	-4.5	.	1%	.	.	.	-0.4	i
O=C(C[C@H]1CC[C@H]2[C@@H](COC[C@H](O)CN2Cc2ccncc2)O1)NCc1ccncc1	.	.	.	.	0	-4	-2.3	-3.6	i
CCCC#Cc1ccc2c(c1)O[C@H](CN(C)C(=O)c1ccccc1)[C@@H](C)CN([C@H](C)CO)S2(=O)=O	.	.	.	.	-4	-19	2.0	1.6	i
Nc1ccc2c(c1)N=[N+]([O-])c1cc(N)ccc1C2	0.67	-1.8	.	5%	3	19	1.3	1.8	i
Cc1ccc(C(=O)OC(C)C(=O)Nc2ccc(Cl)cn2)s1 (centres undefined)	0.65	-0.6	-1	-8%	5	-17	2.6	-3.6	i
Nc1ccc2nc(-c3cccnc3)[nH]c2c1	0.67	0.8	100*	.	.	.	.	.	.
COc1ccc(C(=O)N[C@H](C(=O)Nc2nc3ccccc3[nH]2)C(C)C)cc1	0.7	1.4	.	.	16	17	-1.3	-1.1	.
COc1ccccc1-c1ccc2c(c1)O[C@@H](CN(C)Cc1ccc3c(c1)OCO3)[C@@H](C)CN([C@@H](C)CO)S2(=O)=O	.	.	.	.	1	-5	11	6.0	i
CSc1ccc(/C=C/C(=O)N2CCN(c3ccccn3)CC2)cc1	0.68	-2.4	-4	2%	-7	-5	0.2	0.2	i
COc1cccc(-c2cccc(-c3nc(C(=O)NCCCN4CCOCC4)cc4c3[C@@H](CCO)N(S(=O)C(C)(C)C)C4)c2)c1 (some centres undefined)	.	.	.	.	-4	-3	-1.1	2.2	i
CCOc1cc(CNC(C)(C)CO)cc(Br)c1OCc1ccc(Cl)cc1Cl	0.69	3.9	-4	1%&23%	.	.	.	.	.
COc1ccc(NC(=O)CSc2nc(C)cc(C(F)(F)F)n2)cc1	0.76	0.4	2	-1%	.	.	.	.	.
COc1ccc(S(=O)(=O)N(C)C[C@H]2Oc3c(NC(=O)c4nc5ccccc5s4)cccc3C(=O)N([C@@H](C)CO)C[C@@H]2C)cc1	.	.	.	.	-1	0	-5.7	0.3	i
Cc1cc(C(=O)CCC(=O)NCC(=O)Nc2c(C)cccc2C)c(C)s1	0.69	-0.6	-6	.	1	-17	8.2	1.0	i
CSc1ccc(CN(C)CC(=O)NC(=O)NC(C)(C)C)cc1	0.72	2.8	.	0%	.	.	.	.	.
O=C(N[C@@H]1C=C[C@@H](CC(=O)N2CCN(c3ccccc3)CC2)O[C@H]1CO)c1ccncc1	.	.	.	.	0	-12	2.2	-14	i
CC(C)NC(=O)Nc1ccc2c(c1)C(=O)N([C@H](C)CO)C[C@H](C)[C@@H](CN(C)S(=O)(=O)c1cn(C)cn1)OCCCC[C@H](C)O2	.	.	.	.	5	3	-1.9	-3.4	i
O=C(C1CCN(S(=O)(=O)c2cnc[nH]2)CC1)N1CCn2c1nc1ccccc12	0.69	3.0	-1	4%	9	2	1.2	-51	i
CCC(CC)c1nnc(NC(=O)c2cc(-c3ccccc3)nc3ccccc23)s1	0.71	1.4	-4	.	.	.	.	.	.
C[C@@H]1CN([C@@H](C)CO)C(=O)c2cc(C3=CCCCC3)cnc2O[C@@H]1CN(C)C(=O)c1ccc2c(c1)OCO2	.	.	.	.	8	10	-2.2	-2.9	i

Not a retest: entries from further up.
smiles	E coli growth	HNF4A DNA FP	ALR inh	Vif TR-FRET	rRNA inh HTS	rRNA inh HTS OD600	rRNA inh HTS RFP	MLL AF4-AF9 inh	FGF22 binding
COc1cccc(-c2cccc(-c3nc(C(=O)NCCCN4CCOCC4)cc4c3[C@@H](CCO)N(S(=O)C(C)(C)C)C4)c2)c1 (some centres undefined)	.	.	.	.	-4	-3	-1.1	2.2	i
CCOc1cc(CNC(C)(C)CO)cc(Br)c1OCc1ccc(Cl)cc1Cl	0.69	3.9	-4	1%&23%	.	.	.	.	.
COc1ccc(NC(=O)CSc2nc(C)cc(C(F)(F)F)n2)cc1	0.76	0.4	2	-1%	.	.	.	.	.
COc1ccc(S(=O)(=O)N(C)C[C@H]2Oc3c(NC(=O)c4nc5ccccc5s4)cccc3C(=O)N([C@@H](C)CO)C[C@@H]2C)cc1	.	.	.	.	-1	0	-5.7	0.3	i
Cc1cc(C(=O)CCC(=O)NCC(=O)Nc2c(C)cccc2C)c(C)s1	0.69	-0.6	-6	.	1	-17	8.2	1.0	i
CSc1ccc(CN(C)CC(=O)NC(=O)NC(C)(C)C)cc1	0.72	2.8	.	0%	.	.	.	.	.
O=C(N[C@@H]1C=C[C@@H](CC(=O)N2CCN(c3ccccc3)CC2)O[C@H]1CO)c1ccncc1	.	.	.	.	0	-12	2.2	-14	i
CC(C)NC(=O)Nc1ccc2c(c1)C(=O)N([C@H](C)CO)C[C@H](C)[C@@H](CN(C)S(=O)(=O)c1cn(C)cn1)OCCCC[C@H](C)O2	.	.	.	.	5	3	-1.9	-3.4	i
O=C(C1CCN(S(=O)(=O)c2cnc[nH]2)CC1)N1CCn2c1nc1ccccc12	0.69	3.0	-1	4%	9	2	1.2	-51	i
CCC(CC)c1nnc(NC(=O)c2cc(-c3ccccc3)nc3ccccc23)s1	0.71	1.4	-4	.	.	.	.	.	.
C[C@@H]1CN([C@@H](C)CO)C(=O)c2cc(C3=CCCCC3)cnc2O[C@@H]1CN(C)C(=O)c1ccc2c(c1)OCO2	.	.	.	.	8	10	-2.2	-2.9	i

Three compounds out of the list, sorted by SMILES length, largest number first:
smiles	E coli growth	HNF4A DNA FP	ALR inh	Vif TR-FRET	rRNA inh HTS	rRNA inh HTS OD600	rRNA inh HTS RFP	MLL AF4-AF9 inh	FGF22 binding
C[C@H]1CN([C@@H](C)CO)C(=O)c2cc(/C=C/c3ccccc3)cnc2O[C@@H]1CN(C)S(=O)(=O)c1ccc(F)cc1	.	.	.	.	-4	3	5.0	6.5	i
CSc1ccc(CN(C)CC(=O)NC(=O)NC(C)(C)C)cc1	0.72	2.8	.	0%	.	.	.	.	.
COc1cc2c(cc1NC(=O)c1ccncc1)oc1ccccc12	0.69	-3.0	-6	-7%	.	.	.	.	.

High-throughput results from PubChem.
